Rango-impB inh – Rango-importin beta binding inhibition; Q14974; Rango CFP/YFP FRET sensor + importin beta, 45 min; Potency, µM (doses to about 92.2 µM), for the others: at the top dose inhibition of complex formation; actives 0.031% (n = 340,000); AID 540263; active = rising FRET ratio curve, often small or poorly fitted; inconclusive = mostly compound fluorescence or quenching in the first reads; inactive = flat curves in all reads;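 further: potency means the concentration at half of the fitted maximal effect; 0% = DMSO wells and 100% = buffer wells lacking importin beta; nearly all actives have a fitted effect of over 15% in size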
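Inhibition scored from the CFP 486 nm/YFP 530 nm FRET ratio 45 min after adding 0.125 microM importin beta to 50 nM Rango biosensor preincubated 5 min with compound (room temperature, PBS with DTT, Tween-20, BSA). No-importin wells as positive control.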
GLA inh pH 4.5 – inhibitors of human alpha-galactosidase A at pH 4.5 | activity change, negative = inhibition, % at 105 µM | purified enzyme, 4-MU-alpha-Gal fluorescence, pH 4.5 | AID 1467 | 230,000 tested, under 10 active; inconclusive = small, poorly fitted or top-dose-only inhibition, or a rising curve; inactive = flat fitted curve, though single readings scatter; no compound was filed as active;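 further: 0% = full activity with enzyme and -100% = basal without enzyme; dose as in the result columns while the protocol names 77 µM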
Target sequence (P06280 whole entry, looked up): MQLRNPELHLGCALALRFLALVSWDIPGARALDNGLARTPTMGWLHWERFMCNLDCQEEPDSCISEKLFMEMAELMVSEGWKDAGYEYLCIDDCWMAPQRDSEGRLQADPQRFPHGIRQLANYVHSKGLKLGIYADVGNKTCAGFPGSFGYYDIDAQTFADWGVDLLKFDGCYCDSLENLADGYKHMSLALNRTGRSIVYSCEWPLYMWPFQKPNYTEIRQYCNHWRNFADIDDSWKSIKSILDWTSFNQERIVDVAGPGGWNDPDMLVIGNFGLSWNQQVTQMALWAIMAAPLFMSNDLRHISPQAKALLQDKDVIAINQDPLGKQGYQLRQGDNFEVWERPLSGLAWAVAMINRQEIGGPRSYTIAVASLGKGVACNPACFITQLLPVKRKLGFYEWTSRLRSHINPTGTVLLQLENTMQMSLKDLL
miR-21 FLuc – miR-21 reporter, rising signal; HeLa miR-21 FLuc reporter, luciferase, 48 h; Potency, µM (top dose mostly 38.3 µM), for inactives: at the top dose reporter change, positive = more light; 340,000 tested, under 10 active; active = well fitted rising curve with a large enough effect; inconclusive = small, poorly fitted or top-dose-only effect; inactive = no such curve, though single readings can be large or run the other way;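 further: % of control where 0% means no effect; miR-21 action dims this reporter so a rising signal means less miR-21 action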
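Luminescence from a firefly luciferase reporter carrying a miR-21 binding site downstream, stably expressed under a CMV promoter in HeLa cells that make miR-21 endogenously, reports miRNA modulation after 48 h compound exposure up to approximately 40uM final.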
Rango dissoc inh – prevents RanGTP from dissociating the Rango-importin beta complex; O95149+P62826; Biochemical FRET Rango-importin beta, RanGTP-induced dissociation; actives 0.071% (n = 340,000); Potency, µM (series often up to 46.1 µM), for the others: at the highest dose activity change, negative = inhibition; active means falling FRET ratio curve, often poorly fitted, with flat reads before Ran was added; inconclusive means other falling curves, or compound fluorescence or quenching; inactive means flat or rising ratio curve;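 further: potency means the concentration at half of the fitted maximal effect; % of control where 0% means no effect; nearly all actives have a fitted effect of over 45% in size; -100% = wells without RanGTP and RCC1; the record marks most hits as doubtful in a second field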
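FRET read at 45 min, room temperature: inhibitors block the CFP/YFP signal rise when RanGTP (0.6 uM Ran, 2 mM GTP, 0.2 uM RCC1) frees Rango (0.1 uM) from importin beta (0.25 uM). Pre-read after 5 min compound exposure flags interference.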
* = called active by the depositor; ? = inconclusive; . = no result given; & = joins results of further samples.

miR-21 FLuc	Rango-impB inh	GLA inh pH 4.5	Rango dissoc inh	structure
9.1%	9.0%	-7.0	8.0%	O=C(CSc1nnc(-c2ccc(Cl)cc2)n1Cc1ccco1)Nc1ccc2c(c1)OCCO2
-7.7%	-5.3%	-12.1	-6.6%	COc1ccc(-c2nnn(CC(=O)N(Cc3cccs3)C(C)C(=O)NC3CCCC3)n2)cc1OC (centres undefined)
12.2%	2.9%	2.7	9.2%	O=C(NC1CCN(C(=O)N2c3ccccc3Sc3ccccc32)CC1)c1ccccc1Cl
-0.5%	3.9%	-2.9	1.7%	Cc1[nH]n(-c2ccc([N+](=O)[O-])cc2)c(=O)c1/C=N/N1CCOCC1
.	-0.2%	.	1.3%	COc1ccc([C@@H]2CC=C(C(=O)O)[C@H](c3ccccc3F)N2S(=O)(=O)c2ccc(C)cc2)cc1OC
-4.7%	3.6%	4.1	-9.0%	O=C(C1=C[C@@H](C2CC2)C[C@@H](OCCCCO)O1)N1CCN(Cc2ccc3c(c2)OCO3)CC1
-4.2%	-1.7%	.	-15.9%	COC(=O)c1sccc1NS(=O)(=O)c1ccccc1
0.3%	?	-2.9	3.7%	CCOC(=O)c1c(NC(C)=O)sc2c(OC)c(Br)ccc12
.	-2.5%	.	1.7%	CCN(C(=O)c1cc(Cl)ccc1Cl)C1CCS(=O)(=O)C1 (centres undefined)
-1.7%	0.4%	-23.9	2.9%	CC(C)(C)c1csc(NNC(=O)c2ccc(Cl)cc2)n1
0.4%	-0.1%	4.5	0.0%	CN(NC(=O)C(C)(C)C)c1nc(-c2ccccc2)nnc1C(F)(F)F
-1.0%	0.7%	9.7	22.2%	Nc1nc(N2CCN(c3ccc(F)cc3)CC2)n[nH]1
-0.9%	4.7%	-6.5	-0.7%	Cc1cc(NC(=O)CN2CCN(c3cccc(Cl)c3)CC2)no1
3.8%	-3.4%	2.8	-2.5%	Cc1cc(O)ccc1N=Cc1c(C(F)(F)F)[nH][nH]c1=O
-1.6%	-0.3%	-4.6	-11.0%	CN(CC(O)Cn1cnc2c1c(=O)n(C)c(=O)n2C)c1ccccc1 (centres undefined)
-6.4%	2.7%	4.5	-9.7%	CCOc1ccc(C2C(C#N)=C(N)Oc3cc(C)n(CCN(C)C)c(=O)c32)cc1OCC (centres undefined)
-10.0%	1.7%	-1.6	1.7%	CC(Sc1nc2ccccc2c(=O)[nH]1)C(=O)O (centres undefined)
-5.7%	?	-0.2	?	CC(C)OC(=O)C(C#N)c1nc2ccccc2nc1N1CCCC1 (centres undefined)
-23.0%	-0.9%	1.8	1.0%	CC1CCN(S(=O)(=O)c2cc(Br)cc(C(=O)NC3=NCCS3)c2)CC1
-5.2%	0.0%	.	0.0%	COc1ccc(C(=O)NC2CC2)cc1OC1CCN(Cc2ccc(SC)cc2)CC1
-2.1%	0.1%	2.7	0.9%	CNC(=O)c1ccccc1S(=O)(=O)c1ccccc1C#N
2.0%	0.4%	-10.0	-6.1%	CCOC(=O)C1=NNC(C(=O)c2ccc(Cl)cc2)C1c1ccc(OC)cc1 (centres undefined)
-18.4%	-0.7%	-11.3	-0.3%	COc1ccc(/C=N/n2c(-c3cc(C)[nH]n3)n[nH]c2=S)cc1OC
-5.5%	-2.0%	0.8	-0.8%	Cn1cc([C@@H]2C[C@H]3CN(Cc4cccc(Cl)c4)C(=O)[C@]34CCCN24)c2ccccc21
1.9%	-0.1%	.	3.7%	CCOC(=O)C1CCCN(C(=O)CCCn2nnnc2CN2CCC(C)CC2)C1 (centres undefined)
-1.8%	5.2%	3.9	22.1%	CCC(C)C(NC(=O)C(CC(C)C)NC(=O)C(CO)NC(=O)C1CCC(=O)N1)C(=O)OC (centres undefined)
.	1.6%&-1.3%	0.4&-5.6	1.4%&3.1%	COc1ccccc1OCC(O)CN1CCN(CC(=O)Nc2c(C)cccc2C)CC1 (centres undefined)
-3.0%	-3.8%	.	-7.2%	O=C1NC2(CCCCC2)C(=O)N1c1ccc(Cl)cc1
-2.1%	4.1%	-4.7	40.4%	COC(=O)c1sccc1Oc1c(Cl)cccc1[N+](=O)[O-]
-7.0%	-1.0%	5.9	2.2%	CCOc1ccc2nc(NC(=O)CC3Oc4ccccc4NC3=O)sc2c1 (centres undefined)
-28.7%	-3.1%	.	-2.5%	COc1ccccc1NC(=O)Nc1ccc(C)cn1
-7.8%	-2.5%	.	0.9%	CC1CC(C)CN(CCCNC(=O)c2ccc3c(c2)N(Cc2ccccc2)C(=O)c2ccccc2S3=O)C1 (centres undefined)
-3.8%	0.6%	4.4	3.3%	Cc1ccc(S(=O)(=O)N/N=C2/CCCCC2C2CCCCC2)cc1[N+](=O)[O-] (centres undefined)
0.2%	3.9%	-15.7	24.5%	NC(=O)NC(CC(=O)NCCCc1ccccc1)c1ccc(Cl)cc1 (centres undefined)
.	3.0%	.	-10.3%	COc1ccccc1N1CCN(S(=O)(=O)CCNC(=O)C2CC2)CC1
-10.6%	?	-1.4	?	Cc1cccc(NC(=O)/C(C#N)=C\c2cc(C)n(-c3ccc(C(=O)O)cc3)c2C)c1
-1.7%	-1.4%	-0.7	-15.5%	Cc1ccc(N2C(=O)NC(C(F)(F)F)(C(F)(F)F)C3=C2CC(C)(C)CC3=O)cc1
-5.9%	-2.2%	3.6	-0.4%	COCCCNC(=O)c1ccc(CN2CCc3ccccc3C2)cc1
-3.6%	?	18.7	?	CCN(C(=O)c1coc(=O)c(Br)c1)c1ccc2c(c1)OCO2
1.2%	0.3%	-11.4	13.5%	Cc1nc(Nc2ccc3c(c2)OCO3)c2oc3ccccc3c2n1
-0.4%	?	-7.8	-13.7%	CCNC(=S)N(Cc1c(C)noc1C)c1ccccc1
-4.1%	0.5%	-2.5	-8.2%	CC(=O)NC1CC2CCCC(C1)N2C(=O)Nc1ccc(Cl)c(C(F)(F)F)c1 (centres undefined)
-13.1%	10.0%	-5.2	-4.1%	O=C1CCC(C(=O)OC(C(=O)c2c[nH]c3ccccc23)c2ccccc2)=NN1 (centres undefined)
-9.8%	-0.6%	2.3	-2.8%	Cc1nc(NC(=O)CSc2nc3cccnc3n2C2CCCCC2)sc1C
-1.3%	0.3%	-9.2	-5.7%	Cc1cc(CN2CCN(CCC#N)CC2)c(O)c(C2(C)CCCCC2)c1
0.8%	-2.6%	6.2	3.8%	Cc1ccc(NC(=O)c2cccs2)cc1NC(=O)c1cccnc1
-20.2%	?	-6.8	-17.5%	CCn1c(C(=O)N2CCc3ccccc3C2)cc2sccc21
.	0.0%	.	-6.6%	COc1cc(OC)cc(C(=O)Nc2ccc(N3CCOCC3)cc2N2CCOCC2)c1

The last 5 compounds of the part before lead into the next:
miR-21 FLuc	Rango-impB inh	GLA inh pH 4.5	Rango dissoc inh	structure
-9.8%	-0.6%	2.3	-2.8%	Cc1nc(NC(=O)CSc2nc3cccnc3n2C2CCCCC2)sc1C
-1.3%	0.3%	-9.2	-5.7%	Cc1cc(CN2CCN(CCC#N)CC2)c(O)c(C2(C)CCCCC2)c1
0.8%	-2.6%	6.2	3.8%	Cc1ccc(NC(=O)c2cccs2)cc1NC(=O)c1cccnc1
-20.2%	?	-6.8	-17.5%	CCn1c(C(=O)N2CCc3ccccc3C2)cc2sccc21
.	0.0%	.	-6.6%	COc1cc(OC)cc(C(=O)Nc2ccc(N3CCOCC3)cc2N2CCOCC2)c1
1.5%	2.2%	4.2	0.8%	O=C1CCC(C(=O)Nc2ccc(OC(F)F)cc2)N1 (centres undefined)
2.2%	-1.0%	?	2.5%	Cc1csc(NC(=O)CCCSc2nc3ccccc3s2)n1
.	0.0%	.	0.2%	Cc1ccc2nnn(Cc3cccc(C(C)(C)C)c3O)c2c1
?	2.1%	-4.6	-24.3%	Cc1ccc(C(C)C)cc1NC(=O)Nc1ccc([N+](=O)[O-])cc1
-3.5%	-0.3%	.	0.7%	Oc1ccc(N2CCN(Cc3c(-c4ccccc4)nc4ccccn34)CC2)cc1
-2.2%	-0.2%	0.1	-3.3%	CC(C)OCC(O)Cn1c(N2CCCC2)nc2c1c(=O)[nH]c(=O)n2C (centres undefined)
-24.6%	?	.	-10.2%	CSc1ccc(NC(=O)NCc2cccnc2)cc1
-3.8%	-1.5%	-10.3	-9.6%	COC(=O)CCc1c(C)c(C(=O)c2cc(F)c(F)c(F)c2F)c2ccccn12
-3.8%	-2.7%	0.4	29.6%	Cc1cccc(-n2c(SCc3cc(=O)n4ccsc4n3)nc3ccccc3c2=O)c1
13.3%	-2.8%	-9.3	18.2%	COc1ccc(-n2ncc(S(=O)(=O)c3ccccc3)c2-c2ccc(Cl)cc2)cc1
-14.9%	2.7%	2.1	-1.0%	Cn1cc(CN2CCCCC2c2ccccn2)c(-c2ccc3c(c2)OCCO3)n1 (centres undefined)
-3.7%	-0.5%	0.2	4.3%	CC(=O)N1CCn2c3c(c4cc(C)ccc42)CCCC31 (centres undefined)
-15.5%	-2.1%	-6.9	7.5%	CCOc1ccc(C(=O)NC(=S)Nc2ccccc2N2CCCCC2)cc1[N+](=O)[O-]
-13.3%	-0.1%	-2.3	-2.5%	Cc1ccnc(SCc2cc(=O)c(OC(=O)c3ccc(S(=O)(=O)N(C)C)cc3)co2)n1
0.5%	1.2%	5.8	-2.0%	O=C(CN(CCc1ccccc1)S(=O)(=O)c1ccc(Br)cc1)N/N=C/c1ccccc1C(=O)O
-8.5%	?	.	-3.8%	COc1ccc(CCNC(=O)Cc2cccc(C(F)(F)F)c2)cc1OC
-33.2%	-0.1%	-0.9	11.2%	CCS(=O)(=O)N1CCN(c2nc(-c3ccccc3)cs2)CC1
-2.1%	-0.9%	-9.0	13.3%	CCOC(=O)C1=C(C(F)(F)F)Nc2ncnn2C1c1ccc(OC)c(OC)c1OC (centres undefined)
-10.0%	0.2%	8.1	19.7%	CC(=O)C(Cc1cnc(Cl)s1)(Cc1cnc(Cl)s1)C(C)=O
4.4%	0.3%	.	27.8%	O=C1/C(=C/c2ccc(F)cc2)SC(=S)N1CC(=O)N1CCCCC1c1cccnc1 (centres undefined)
-23.1%	-3.3%	2.8	16.0%	c1ccc(Cc2nnc3sc(-c4ccccn4)nn23)cc1
-2.3%	1.4%	0.8	-10.8%	CC(=O)CC1(O)C(=O)N(Cc2ccccc2)c2ccccc21 (centres undefined)
0.1%	?	-11.7	-10.0%	O=C1CCC/C1=C/Nc1cccc(F)c1
24.0%	0.0%	-2.1	1.4%	CCOCCCn1c(SC(C(=O)Nc2cc(C)ccc2C)c2ccccc2)nnc1-c1ccc(Cl)cc1 (centres undefined)
-30.7%	?	.	-23.7%	O=C(CCCN1C(=O)/C(=C/c2ccc3c(c2)OCO3)SC1=S)Nc1cccc(C(=O)O)c1
19.2%	4.0%	-1.8	10.0%	O=C(Nc1ccccn1)c1ccc(CN(c2ccccc2)S(=O)(=O)c2ccccc2)cc1
-2.9%	1.2%	-0.1	0.3%	CC1CCN(C(=O)CSc2nncn2C)CC1
-1.2%	1.0%	-4.5	1.6%	CCN1C(=O)c2ccc(C(=O)NCc3ccccc3)cc2C1=O
10.2%	0.3%	1.3	4.5%	Cc1c(Cl)cccc1NC(=S)N(Cc1cccnc1)Cc1ccccc1Cl
-4.6%	-0.6%	0.3	-3.4%	COc1c(F)c(F)c(C(=O)O)c(Nc2cc(C)cc(C)c2)c1F
?	0.8%	-14.5	9.5%	Cc1ccc(Cl)cc1N1CCN(C(=O)COc2ccc(S(=O)(=O)NC(C)C)cc2)CC1
-1.0%&11.7%	-1.4%	.	-1.7%	COc1ccccc1NC(=O)CSc1ccc(-c2ccccn2)nn1
-3.1%	10.3%	-2.0	12.1%	COc1ccc(C(C(=O)NC2CCCC2)N(C(=O)c2snc(-c3ccc(F)cc3)c2N)c2ccc(OC)cc2)cc1 (centres undefined)
.	-0.5%	.	4.2%	Cc1ccc(S(=O)(=O)NCCC(=O)NCC(c2ccco2)N2CCCCC2)cc1C (centres undefined)
-0.2%	-1.9%	.	17.9%	COc1cccc(C2C(C(=O)c3ccc(C)o3)=C(O)C(=O)N2CCN2CCOCC2)c1OC (centres undefined)

Screening data deposited in PubChem BioAssay by National Center for Advancing Translational Sciences (NCATS).

Only part of the results is shown (hit frequency here may not be typical).
